Arbovirus inh: blocks arbovirus infection. arbovirus infection cell-based antiviral screen. AID 1251. inhibition, % at 10 µM. 200,000 compounds, 0.37% hits;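 active means inhibition from about 30%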;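 further: bluetongue infection of BSR cells; cell survival read as ATP light after 72 h; 0% = infected wells without compound and 100% = uninfected wells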
YopH inh: blocks Yersinia enterocolitica YopH tyrosine phosphatase; 140,000 compounds, 0.16% hits; fluorescence Ex485/Em525; inhibition, %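 (about 10 µM by stock and volumes)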;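 active means inhibition of 50% or more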;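 further: controls were vehicle for no effect and minimum signal wells for full effect; inactives centre near -20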
RecA splice inh: blocks M. tuberculosis RecA intein splicing; P9WHJ3; inhibition, %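 (about 9 µM by stock and volumes)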; 290,000 compounds, 0.75% hits; cell-free RecA intein splicing, fluorescence; in the data active means inhibition above about 30%; inconclusive means no clear call, values can overlap the other calls;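 further: 0% = vehicle wells and 100% = reference inhibitor control wells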
Target sequence (P9WHJ3 whole entry, looked up, canonical isoform): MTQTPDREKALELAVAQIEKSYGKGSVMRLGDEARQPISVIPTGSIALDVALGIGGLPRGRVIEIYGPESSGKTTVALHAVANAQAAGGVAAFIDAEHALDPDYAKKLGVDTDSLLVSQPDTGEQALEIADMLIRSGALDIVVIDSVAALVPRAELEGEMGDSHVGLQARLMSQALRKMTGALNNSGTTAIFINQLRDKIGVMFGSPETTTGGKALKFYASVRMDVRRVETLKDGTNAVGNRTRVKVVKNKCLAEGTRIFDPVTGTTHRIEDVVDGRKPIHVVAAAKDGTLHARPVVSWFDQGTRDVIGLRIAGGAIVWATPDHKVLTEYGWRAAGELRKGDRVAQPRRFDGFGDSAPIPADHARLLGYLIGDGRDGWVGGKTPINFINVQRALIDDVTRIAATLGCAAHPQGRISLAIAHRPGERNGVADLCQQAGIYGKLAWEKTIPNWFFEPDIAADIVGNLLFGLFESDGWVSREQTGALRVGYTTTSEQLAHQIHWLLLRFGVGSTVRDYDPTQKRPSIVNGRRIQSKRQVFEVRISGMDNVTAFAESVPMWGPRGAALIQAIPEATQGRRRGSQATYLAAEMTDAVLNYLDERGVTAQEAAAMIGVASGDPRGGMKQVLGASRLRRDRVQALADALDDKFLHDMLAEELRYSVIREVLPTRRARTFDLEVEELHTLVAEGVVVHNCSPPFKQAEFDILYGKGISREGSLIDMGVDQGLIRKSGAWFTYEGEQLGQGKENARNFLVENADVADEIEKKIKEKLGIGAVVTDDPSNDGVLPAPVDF
Mtb growth: M. tuberculosis H37Rv growth inhibitors, H37Rv strain (AID 1626). M. tuberculosis H37Rv growth inhibition; higher % means a stronger effect. inhibition, % at 10 µM; hits with a dose series show IC50 in µM. 220,000 compounds, 0.95% hits;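 active means confirmed in a dose series; inconclusive means inhibition above 80% but not taken into the dose series; inactive means below 80% or under 30% at every dose of the series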;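 further: bacteria incubated seven days before Alamar blue readout; 0% = bacteria only wells and 100% = bacteria with antibiotic wells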
Mtb betalactam: beta-lactam sensitization of Mtb H37Rv. M. tuberculosis H37Rv growth with meropenem, percent inhibition; hits of this screen are not shown here. inhibition, % at 25 µM. 330,000 compounds, 0.27% hits;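 active means about 74% or more and at least 40 points above the plate without the antibiotic, then above 30% in a dose series; inconclusive means first-round hits that could not be retested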;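 further: growth measured after seven days incubation then overnight dye step; 0% = bacteria only wells and 100% = bacteria with antibiotic; twin plates without the antibiotic show which effects depend on it; some results filed as inactive read as strong as hits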
Arbovirus inh repeat: recorded beside Arbovirus inh, whose call it bears; inhibition, %; measured here: 10K subset replicate screen; many hits read low in the repeat;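 first of two repeat runs on a subset; 0% = infected and 100% = uninfected wells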
An asterisk follows results filed as active; i = inactive; ? = inconclusive; / = not tested or not shown. Only part of the results is shown. The share of hits here may be higher or lower than overall.

SMILES	Arbovirus inh	YopH inh	RecA splice inh	Mtb growth	Mtb betalactam	others
Cc1ccc2oc(-c3ccc(NC(=O)c4ccncc4)cc3O)nc2c1	8	/	-4.5	1%	-5
CCC12CN3CC(CC)(CN(C1)C3c1ccc(OC(C)C)cc1)C2=O (centres undefined)	0	-16	1.6	-7%	-3
COc1ccc(C(=O)Nc2cccc(NC(=O)c3ccc(OC)c(OC)c3)n2)cc1OC	/	/	-0.7	/	2
COc1ccc(C(=O)NCC(O)CN2CCOCC2)cc1[N+](=O)[O-] (centres undefined)	/	/	-2.0	/	-4
Cc1nnsc1C(=O)N/N=C/c1cccc(C(F)(F)F)c1	-7	/	-3.0	/	-2
CC(=O)CCc1c(C)nc2ccc(C(=O)O)cc2c1Cl	1	-18	-5.6	-11%	-3
COc1cccc(C(C(=O)NC2CCCC2)N(CC2CCCO2)C(=O)Cc2cccs2)c1 (centres undefined)	-1	/	-0.5	-2%	-13
Cc1ccc(C2CC(c3ccc(C)cc3)n3nc(N)nc3N2)cc1 (centres undefined)	9	-28	-0.1	7%	?	Arbovirus inh repeat=10
O=C1CC(C(=O)O)c2ccccc2N1 (centres undefined)	8	-16	-1.3	-1%	-15
Cc1ccc2c(c1)C(c1ccccc1)N(C(=O)c1ccccc1[N+](=O)[O-])CC(=O)N2 (centres undefined)	/	/	2.8	/	9
O=C(Nc1nnc2n1CCS2)c1ccco1	/	/	-3.5	/	-1
COc1ccc(-c2nnc(SCC(=O)N/N=C/c3ccccc3C(=O)O)n2-c2ccc(Cl)cc2)cc1	/	/	2.9	5%	9
O=C(c1cc(-c2cccs2)nn1-c1ccccc1)N1CCN(S(=O)(=O)c2ccccc2)CC1	/	/	-0.9	/	-12
COc1ccc(S(=O)(=O)NCc2ccccc2)cc1	1	-11	-1.3	9%	-14
COc1cc(OC)cc(C(=O)N[C@H](C(=O)OCC(=O)Nc2ccc(OC)c(OC)c2)C(C)C)c1	-2	/	0.8	4%	0
Cc1ccc(C(=O)NNC(=O)C2CCN(c3nccc(C)n3)CC2)cc1	0	-29	-2.0	1%	7
CCc1ccc(NC(=O)CCc2nc3sc4c(c3c(=O)[nH]2)CCCC4)cc1	/	/	-0.3	/	-2
O=C(c1ccccc1)c1cn(CC(=O)N2CCCC2)c2ccccc12	11	-40	0.6	5%	-1	Arbovirus inh repeat=6
CCOC(=O)c1ccc(N2C(=O)c3n[nH]c(C)c3C2c2ccc(OC)c(OC)c2)cc1 (centres undefined)	-4	-25	-2.2	-3%	1
COc1ccc(/C(C)=N/NC(=S)NCc2ccco2)cc1	1	-5	3.4	?	92
CC(C)COc1ccc2[nH]c3c(c2c1)CCCC3=O	-8	-19	-5.9	-3%	15
CCCn1c(CN2CCN(C(=O)OCC)CC2)nc2cc(NC(=O)CC)ccc21	/	/	-0.7	/	4
O=C(COc1ccccc1)N1CCN(C2CCCC2)CC1	1	-32	0.4	2%	5
COc1cc(-c2cc(C(=O)O)c3cc4c(cc3n2)OCCO4)cc(OC)c1OC	7	-17	/	2%	4
Clc1ccc2c(c1)[C@H]1OCC[C@H]1[C@@H](c1ccco1)N2	-3	-20	13	2%	1

Of the compounds above, these have a Cl atom.
SMILES	Arbovirus inh	YopH inh	RecA splice inh	Mtb growth	Mtb betalactam	others
CC(=O)CCc1c(C)nc2ccc(C(=O)O)cc2c1Cl	1	-18	-5.6	-11%	-3
COc1ccc(-c2nnc(SCC(=O)N/N=C/c3ccccc3C(=O)O)n2-c2ccc(Cl)cc2)cc1	/	/	2.9	5%	9
Clc1ccc2c(c1)[C@H]1OCC[C@H]1[C@@H](c1ccco1)N2	-3	-20	13	2%	1

Other results follow:
SMILES	Arbovirus inh	YopH inh	RecA splice inh	Mtb growth	Mtb betalactam	others
Cc1cc(NC(=O)C2CCCN(S(=O)(=O)c3c(C)noc3C)C2)n[nH]1 (centres undefined)	-3	-52	3.3	1%	-2
COc1ccc(-c2csc(N(CCCN(C)C)C(=O)c3ccccc3C)n2)cc1	/	/	1.2	/	12
CC(Oc1ccccc1)C(=O)Nc1nnc(S(=O)(=O)N(C)c2ccccc2)s1 (centres undefined)	/	/	1.3	/	3
CCn1cc(SCC(=O)N2CCOCC2)c2ccccc21	7	-45	0.3	-5%	2
O=C(Nc1cccc(C(F)(F)F)c1)C1C2CC3OC(=O)C1C3C2 (centres undefined)	-2	-28	-4.9	-3%	5
Cc1ccc(C(=O)Nc2ccccc2C(=O)N2CCCCC2C)cc1 (centres undefined)	/	/	-1.0	/	6
NS(=O)(=O)c1ccc(Sc2ccc3ccccc3c2)nc1	/	/	0.8	/	10
Cc1ccc(NC(=O)c2cccc(S(=O)(=O)N(C)c3ccccc3)c2)cc1S(=O)(=O)N1CCOCC1	2	-28	5.6	6%	-7
CN(CC(=O)Nc1ccccc1Br)C(=O)CNC(=O)c1ccc2c(c1)OCO2	/	/	0.5	/	-1
CCCCN(CCCC)Cc1ccc(C(=O)NNC(=O)Nc2ccc(F)cc2)o1	-2	/	-3.4	1%	-2
COc1ccccc1NC(=O)c1cc(Br)ccc1Cl	-5	/	4.5	-4%	21
CCC(=O)NNC(=O)Cc1c(C)n(C(=O)c2ccc(Cl)cc2)c2ccc(OC)cc12	/	/	0.0	/	-4
Cc1ccc(Nc2nc(N)nc(CN3CCN(C)CC3)n2)cc1C	2	-7	/	-10%	/
COc1ccccc1C(=O)NCc1ccco1	/	/	1.9	/	7
O=C(CN1CCN(S(=O)(=O)N2CCCCCC2)CC1)Nc1cc(Cl)ccc1Cl	/	/	0.4	/	-1
COc1ccc(CNS(=O)(=O)c2ccc(-n3cnnn3)c(OC)c2)cc1	/	/	-0.3	/	-6
COc1cccc(CNC(=O)c2cc(COc3c(F)cccc3F)on2)c1	2	/	2.9	7%	4
N#Cc1nc(Cc2ccccc2)oc1N1CCCC1	4	/	-1.1	0%	-4
CC(=O)c1cc(C#N)c(SCc2ccccc2)nc1C	11	-24	1.2	-1%	11
CCN1CCN(CC(=O)NC2CCCCC2)C(=O)C1=O	6	-7	2.6	-1%	-8	Arbovirus inh repeat=-1
CCOC(=O)C1=C(N)n2c(s/c(=C\c3ccco3)c2=O)=C(C(=O)OC(C)C)C1c1ccco1 (centres undefined)	12	2	7.7	1%	-5
CCOc1ccc(C(=O)NCc2ccco2)cc1	4	-22	-0.2	-8%	-3
O=C(COc1ccc(-n2ccnc2)cc1)Nc1cccc(Cl)c1	-10	/	4.4	3%	-2
COc1cccc(CN2CCN(C(=O)c3cccc4ccccc34)CC2)c1OC	6	-51	2.7	0%	-4
CS(=O)(=O)NN1C(=O)c2ccccc2NC1c1ccccc1O (centres undefined)	0	/	-5.1	-2%	-4
Other structures follow.
SMILES	Arbovirus inh	YopH inh	RecA splice inh	Mtb growth	Mtb betalactam	others
Cc1cc(NC(=O)C2CC2)ccc1NC(=O)c1cccs1	/	/	-3.2	/	-11
O=C1CCC(/C=C/c2ccccc2)=NN1Cc1ccccc1	-13	/	-3.0	1%	4
CC(C)NC(=O)COc1coc(CN2CCN(c3cccc(Cl)c3)CC2)cc1=O	/	/	-9.1	/	0
O=C(CSc1nnc(-c2ccccc2F)n1C1CC1)Nc1ccc2[nH]c(=O)[nH]c2c1	0	/	0.4	-2%	-12
COC(=O)Cn1ccc(-c2ccc(Cl)cc2)c(C#N)c1=O	6	/	-0.1	-5%	-2
CN(C)c1ccc(NC(=O)CSCc2nc3c(nnn3Cc3ccc(F)cc3)c(=O)[nH]2)cc1	-2	-119	-4.5	-6%	0
N=c1c(C(=O)NCCc2ccccc2)cc2c(=O)n3ccccc3nc2n1CC1CCCO1 (centres undefined)	/	/	i	/	9
COc1ccc(N(C)S(=O)(=O)c2cccc(C(=O)NC3CCCC3)c2)cc1	1	/	3.8	-7%	1
CCCCN1C[C@H](Cc2ccccc2)[C@@H](CC(=O)Nc2ccccc2)C1=O	/	/	1.5	/	-10
Cc1cc(C)c(C(=O)OCCNC(=O)c2cccnc2)cc1C	6	-21	0.9	4%	-2
COC(=O)C1=C(N)Oc2c(c(=O)oc3ccccc23)C1c1cccnc1 (centres undefined)	-7	-24	-4.8	-7%	-3
Oc1ccc2c(c1)oc1cc(O)ccc12	-27	-31	0.1	0%	6
C/C(=C\C(=O)c1ccc(Br)cc1)NNC(=O)c1ccc(O)cc1	/	/	4.0	/	-3
Cc1ccc(C(=O)N2CCC(C(=O)c3c(C)cc(C)cc3C)CC2)cc1	/	/	11	/	5
CCCCOC(=O)C1=C(C)Nc2ncnn2C1c1ccc(OC)c(OC)c1 (centres undefined)	1	-29	3.2	-10%	3
O=C(CSc1ncnc2nc[nH]c12)N1CCOCC1	4	-28	-0.5	-3%	0	Arbovirus inh repeat=3
FC(F)(F)c1cccc(N2CCN(CC3CC4C=CC3C4)CC2)c1 (centres undefined)	-8	-8	1.3	3%	-7
CC(=O)N(Cc1cc2cc(C)c(C)cc2n2nnnc12)CC1COCCO1 (centres undefined)	5	-36	/	2%	-5
COc1ccc(NC(=O)c2ccccc2N2C(=O)C3C4C=CC(C5CC45)C3C2=O)c(OC)c1 (centres undefined)	/	/	-1.5	/	0
O=C(O)c1ccc(/C=C/C(=O)c2ccc3c(c2)OCCCO3)cc1	/	/	-3.9	/	9
COc1ccccc1NC(=O)CSc1nnc(C)o1	1	-12	-1.3	-4%	-3	Arbovirus inh repeat=4
COc1ccc(NC(=O)CN2CCN(c3nc(-c4ccc(F)cc4)cs3)CC2)c(OC)c1	15	/	19	-6%	1
CCC(C)c1ccc(S(=O)(=O)Nc2cccnc2)cc1 (centres undefined)	/	/	1.8	/	-4
Clc1ccc(SCCCCn2cncn2)cc1	1	-31	1.2	-1%	10
O=C(CC1Sc2ccccc2NC1=O)NCc1ccccc1 (centres undefined)	/	/	-1.0	-11%	-8

Four compounds drawn at random from the list so far, as already listed:
SMILES	Arbovirus inh	YopH inh	RecA splice inh	Mtb growth	Mtb betalactam	others
FC(F)(F)c1cccc(N2CCN(CC3CC4C=CC3C4)CC2)c1 (centres undefined)	-8	-8	1.3	3%	-7
N=c1c(C(=O)NCCc2ccccc2)cc2c(=O)n3ccccc3nc2n1CC1CCCO1 (centres undefined)	/	/	i	/	9
CC(C)NC(=O)COc1coc(CN2CCN(c3cccc(Cl)c3)CC2)cc1=O	/	/	-9.1	/	0
Cc1cc(NC(=O)C2CC2)ccc1NC(=O)c1cccs1	/	/	-3.2	/	-11

(further entries)
SMILES	Arbovirus inh	YopH inh	RecA splice inh	Mtb growth	Mtb betalactam	others
NC(=O)c1cccnc1Nc1cccc([N+](=O)[O-])c1	5	/	-0.9	4%	6
Cc1ncc(CO)c2c1Oc1nc(-c3ccccc3F)nc(SCC(=O)N(C)c3ccccc3)c1C2	/	/	1.9	/	6
COc1cccc(Nc2nc(-c3ccccc3O)nc3ccccc23)c1	/	/	-2.9	/	-4
Cc1cccc(C(=O)OCC(=O)N(C)c2ccccc2)c1C	/	/	9.5	/	-3
COc1ccc(-c2cc(C(F)(F)F)c(C#N)c(=O)[nH]2)cc1	/	/	-151	-2%	-1
Cc1ccc(-n2nc3c(=O)n(C(C)C(=O)NCCCc4ccccc4)nc(C)c3c2C)cc1 (centres undefined)	/	/	0.3	/	2
CCOC(=O)C1C(c2ccccc2)NC(=S)NC1(C)O (centres undefined)	4	/	1.4	1%	-4
COc1cc(/C=C2\SC(=S)N(CCC(=O)Nc3ccccc3)C2=O)cc(OC)c1OC	-4	/	/	-5%	-4
Nn1c(Cc2cccc3ccccc23)nnc1SCn1nnc2ccccc2c1=O	4	-24	2.1	3%	-11
CCOc1ccccc1N1CCN(C(=O)c2ccccc2SCC(=O)N2CCCC2)CC1	/	/	-0.9	/	-32
CC[C@]1(c2ccccc2)C(=O)N(C(=O)OC)N1C(=O)OC	/	/	1.5	/	-9
COc1ccccc1C(=O)Nc1ccc(S(=O)(=O)NC2=NCCCCC2)cc1	13	/	0.6	5%	-3
CCOC(=O)c1cc2c(=O)n3ccccc3nc2n(CCOC)c1=NC(=O)c1c(-c2c(F)cccc2Cl)noc1C	-23	/	0.2	/	11
CC(=O)NS(=O)(=O)c1ccc(NC(=O)/C=C/c2ccccc2Cl)cc1	1	-23	7.2	-5%	4
O=C(CSc1ncnc2c1cnn2CCc1ccccc1)Nc1cccc(C(F)(F)F)c1	2	-25	17	5%	16
CCOC(=O)c1c(NC(=O)CN2CCCc3ccccc32)sc(C(C)=O)c1C	1	-2	-3.0	-6%	-9
CN(CC(=O)Nc1ccc(F)c(F)c1F)C(=O)CN1C(=O)NC2(CCCC2)C1=O	/	/	1.9	/	-3
CN(C)c1ccc(C(=O)OCC(=O)N2CCOCC2)cc1	4	/	-0.5	-1%	-9
CCOC(=O)C1=C(C)NC(C)=C(C(=O)OCC)C1c1ccc(Br)o1	3	-19	1.3	11%	7
COC(=O)C(C(=O)OC)C(C(C)C)C(C(=O)OC)C(=O)OC	4	11	-3.4	-1%	-4	Arbovirus inh repeat=5

High-throughput results: PubChem BioAssay, several laboratories
